Mtb growth: Mycobacterium tuberculosis H37Rv growth inhibition, putative kinase inhibitor library, confirmatory dose response (AID 2842) | M. tuberculosis H37Rv growth inhibition; higher % means a stronger effect; some inactives read as strong as hits | one-dose inhibition, % at 10 µg/mL; IC90 in µg/mL for titrated hits | 24,000 tested, 5.2% active;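 active = confirmed in a dose series; inconclusive = mostly over 85% at the one dose but not retested; inactive = below 85% or not confirmed; about a fifth of its hits are not listed in these tables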;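 note: bacteria incubated one week before Alamar blue readout; 0% = bacteria only wells and 100% = bacteria with high antibiotic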
An asterisk follows results filed as active; ? = inconclusive.

Structure | Mtb growth
Cn1c(=O)[nH]c(=O)c2c1nc(N1CCC(Cc3ccccc3)CC1)n2CCSc1ncccn1 | 80%
CCOc1ccc(/C=C(\C#N)C(=O)Nc2nnc(C)s2)cc1OC | -15%
O=C(Nc1nnc(-c2ccco2)o1)C1CC1 | 7%
COCCCNc1ncnc2nc[nH]c12 | -2%
CCOC(=O)c1nn(-c2ccccc2)c(=O)c2c(NC(=O)c3ccc(S(=O)(=O)N4CCCC4)cc3)scc12 | -5%
CCOC(=O)c1oc2ccccc2c1NC(=O)C(C)Oc1ccccc1 (stereo unspecified) | 5%
Cc1nnc(SCCn2c(N3CCC(C)CC3)nc3c2c(=O)[nH]c(=O)n3C)s1 | 0%
O=C(COc1cccc2c1CCNC2=O)NCCc1ccccc1 | -6%
Cc1c(NS(=O)(=O)c2ccc(C(=O)O)cc2)c(=O)n(-c2ccccc2)n1C | -25%
O=C(CCn1c(=O)oc2ccccc21)NCc1cccc(Br)c1 | 1%

The closing three records of the part before are carried over, then new ones follow:
Structure | Mtb growth
O=C(COc1cccc2c1CCNC2=O)NCCc1ccccc1 | -6%
Cc1c(NS(=O)(=O)c2ccc(C(=O)O)cc2)c(=O)n(-c2ccccc2)n1C | -25%
O=C(CCn1c(=O)oc2ccccc21)NCc1cccc(Br)c1 | 1%
CCN(CC)C(=O)c1sc2nc3c(cc2c1N)C(=O)CC(C)(C)C3 | 4%
Cc1ccc(NC(=O)Cn2cnc3c(cnn3-c3ccccc3)c2=O)c(C)c1 | -2%
Nc1nc(NCCO)nc(Nc2ccccc2)c1[N+](=O)[O-] | 1%
Cn1c(=O)c2c(nc3n2CC(c2ccccc2)=NN3CCCO)n(C)c1=O | 24%
CCOC(=O)CNC(=O)Cn1cnc2c(cnn2-c2ccc(C)cc2C)c1=O | -4%
COc1ccc(CCNC(=O)CSc2ncnc3c2nnn3Cc2ccccc2F)cc1OC | -2%
O=C(c1ccco1)N1CCN=C1SCc1ccc(C(F)(F)F)cc1 | -4%
CCOc1cc(C(=O)Nc2nnc(-c3ccc(Cl)cc3)s2)cc(OCC)c1OCC | 9%
O=C(Nc1nnc(-c2ccccc2Cl)s1)c1ccc(C(=O)c2ccccc2)cc1 | -14%
COc1cccc(Nc2ncnc3scc(-c4ccccc4)c23)c1 | 76%
Cc1ccc(C)c(NC(=O)c2c[nH]c(=O)n(-c3ccc(Cl)cc3)c2=O)c1 | 10%
CC(C)N1CCc2c(sc(NC(=O)c3ccc(S(=O)(=O)N4CCCc5ccccc54)cc3)c2C(N)=O)C1 | 7%
COc1ccc(NC(=O)NC2CC(=O)N(c3cccc(OC)c3)C2)cc1 (stereo unspecified) | 5%
Cc1ccc([N+](=O)[O-])cc1NC(=O)CC1SC(N)=NC1=O (stereo unspecified) | -7%
CCC(C)n1c(C)c(C)n2c3c(=O)[nH]c(=O)n(C)c3nc12 (stereo unspecified) | -22%
Cc1cnc(=O)[nH]c1SCc1ccc(C(F)(F)F)cc1 | -5%
CCOc1ccc2c(c1)c1nnc(-c3ccc(F)cc3)c-1cn2Cc1ccccc1 | 4%
NC(=O)CSc1nc(N)c(NC(=O)c2ccccc2F)c(=O)[nH]1 | 3%
CCN(CC)S(=O)(=O)c1cc(C)c2[nH]c(=O)cc(C)c2c1 | 2%
O=C(Cn1cnc2c(cnn2-c2ccccc2)c1=O)Nc1ccc2c(c1)OCO2 | 16%
COc1cccc(C(=O)Nc2cc(C)c3c(=O)oc4ccccc4c3n2)c1 | -5%
CC1CCc2nc(NC(=O)/C=C\c3ccccc3)sc2C1 (stereo unspecified) | 2%
CCCCN(C)S(=O)(=O)c1ccc(C(=O)Nc2nc3ccc4ccccc4c3s2)cc1 | 76%
COc1ccc(NC(=O)CSc2nc(N)c(NC(=O)c3ccccc3)c(=O)[nH]2)cc1 | 8%
Cc1ccc(-c2nnc3ccc(SCC(=O)Nc4ccc5c(c4)OCO5)nn23)cc1 | 6%
COc1cc(-c2nnc(NC(=O)C(C)(C)C)o2)cc(OC)c1OC | 14µg/mL*
CC1=C(C(=O)Nc2ccccc2C)C(c2ccncc2)n2ncnc2N1 (stereo unspecified) | -5%
CC(=O)Nc1ccc(NC(=O)NC2CC(=O)N(c3ccc(C)cc3)C2)cc1 (stereo unspecified) | 0%
O=C(NCCSc1ncc(-c2ccccc2)[nH]1)c1cccc(Br)c1 | 55%
Cc1cccc(-n2ccnc(NCc3ccc(F)cc3)c2=O)c1 | 7%
CCOc1ccc(C(c2sc3nc(C)nn3c2O)N2CCOCC2)cc1OC (stereo unspecified) | -4%
COc1ccc(-c2nnc3ccc(SCC(=O)c4ccc(Cl)cc4)nn23)cc1OC | -6%
CCCC(=O)NCCc1cc2ccc(C)cc2[nH]c1=O | 2%
Cc1ccccc1-c1nnc(NC(=O)C(C)Cl)s1 (stereo unspecified) | 0%
O=C(NN1C(=O)c2ccccc2C1=O)C1CC1 | -1%
Cc1ccc(CNC(=O)c2cccn3c(=O)c4ccc(Cl)cc4nc23)o1 | 8%
O=C(O)c1ccc2c(c1)-c1cc(C(=O)O)ccc1S2(=O)=O | -7%
CCCCOC(=O)Nc1[nH]c(C)c(C(=O)OCC)c1C | -1%
CCOc1ccc2c(c1)c1nnc(-c3ccc(OC)cc3)c-1cn2Cc1ccccc1 | 9%
N#Cc1c2c(c(NCCN3CCCCCC3)n3c1nc1ccccc13)CCC2 | -3%
CCCCC(Sc1ccc2nnc(-c3ccccn3)n2n1)C(=O)O (stereo unspecified) | 6%
CN(C)S(=O)(=O)NC1CC(=O)N(c2ccc3c(c2)OCCO3)C1 (stereo unspecified) | -9%
Cn1c(=O)c2c(SCc3ccccc3)nc(-c3cccs3)nc2n(C)c1=O | -5%
Cc1ccc(-c2ccc(/C=C3\SC(=S)N(CCC(=O)O)C3=O)o2)c([N+](=O)[O-])c1 | -6%
O=C(CSc1ccc(-c2ccc(-n3ccnc3)cc2)nn1)NCC1CCCO1 (stereo unspecified) | 10%
CN1CCc2c(sc(NC(=O)CS(=O)(=O)c3ccc(F)cc3)c2C(N)=O)C1 | -5%
COc1ccc(C(=O)Nc2cc3c4c(c2)C(C)C(=O)N4CCC3)cc1 (stereo unspecified) | -1%
COc1ccc(Cl)cc1C(=O)Nc1nnc(-c2ccccc2)s1 | 4%
COc1ccc(C(=O)NNC(=O)COc2ccc(Cl)cc2)cc1OC | -2%
CC1C(=O)N2CCCc3cc(NC(=O)COc4ccc(Cl)cc4)cc1c32 (stereo unspecified) | 14%

Next section.
Structure | Mtb growth
N#CCCSc1ccccc1NC(=O)c1ccc([N+](=O)[O-])s1 | 1%
Cn1c(=O)[nH]c(=O)c2c1nc1n2CC(c2ccc(F)cc2)=NN1 | -17%
COC(=O)c1c(NC(=O)/C(C#N)=C/c2ccc([N+](=O)[O-])cc2)sc2c1CCCC2 | -6%
CS(=O)(=O)c1cccc(-c2nnc(NC(=O)CCSc3ccc(F)cc3)o2)c1 | 4%
C=CCn1c(SCC(=O)N2CCN(C(=O)OCC)CC2)nc2c([nH]c3ccccc32)c1=O | -6%
COc1ccc(CCNc2nnc(C)c(=O)[nH]2)cc1 | 10%
O=C(Nc1nnc(-c2ccc3c(c2)OCCO3)o1)c1ccccc1Cl | 4.5µg/mL*
O=C(CSc1nc2c(c(=O)n1-c1ccc(F)cc1)SCC2)Nc1cccc(Cl)c1 | 9%
O=C(Nc1ccc(OC(F)(F)F)cc1)c1oc2ccccc2c1NC(=O)C1CC1 | -2%
CCC(=O)Nc1c(C(=O)Nc2ccc([N+](=O)[O-])cc2)oc2ccccc12 | 4%
CN(C)CCCN1C(=O)C(=O)/C(=C(/O)c2ccncc2)C1c1ccc(Br)cc1 (stereo unspecified) | -12%
COc1cccc(-n2ccnc2SCC(=O)Nc2nccs2)c1 | -9%
CC(=O)Nc1ccc(N/C=C(\C#N)c2nc(-c3ccc4c(c3)OCO4)cs2)cc1 | -2%
COc1ccc(N2CC(NC(=O)N3CCN(c4ccc(C(C)=O)cc4)CC3)CC2=O)cc1 (stereo unspecified) | 4%
C=CCNC(=S)NNc1ccc([N+](=O)[O-])cc1 | 10µg/mL*
CCOc1ccc(Nc2ncnc(N)c2[N+](=O)[O-])cc1 | 4%
CC(O)CSc1nc2c(c(=O)n(C)c(=O)n2C)n1Cc1ccccc1Cl (stereo unspecified) | 64%
Cc1ccnc(SCCn2c(N3CCN(CCO)CC3)nc3c2c(=O)n(C)c(=O)n3C)n1 | 5%
COc1ccc2nc(-c3ccc(F)c(NC(=O)c4ccc(F)c(F)c4)c3)cn2n1 | 3%
CCOC(=O)c1nn(-c2ccc(C)cc2)c(=O)c2c(NC(=O)c3ccc(S(=O)(=O)N4CCCC4)cc3)scc12 | -17%
COc1cc(/C=C2/SC(=Nc3cccc(Cl)c3Cl)NC2=O)cc(OC)c1OC | 61%
CCOC(=O)c1nn(-c2ccc(OC)cc2)c(=O)c2c(NC(=O)c3cccc(OC)c3)scc12 | 8%
O=C(CSCc1ccc(Cl)c(Cl)c1)Nc1ccc(F)cc1 | 13µg/mL*
Cc1cc(OC(=O)c2ccc(C(C)(C)C)cc2)c([N+](=O)[O-])c(=O)[nH]1 | 25%
Cc1c(C(N)=O)sc2ncn(C)c(=O)c12 | -6%
O=C1NCCc2c(OCc3ccc(F)cc3)cccc21 | -6%
O=C(CCC1CCCC1)Nc1c(C(=O)Nc2ccc3c(c2)OCO3)oc2ccccc12 | 0%
Nc1nc2c(ncn2C2CC(O)C(CO)O2)c(=O)[nH]1 (stereo unspecified) | -11%
Cc1cc(C)cc(C(=O)Oc2coc(CSc3nc(C)cc(C)n3)cc2=O)c1 | 6%
COc1cccc(NC(=O)c2oc3ccccc3c2NC(=O)COc2ccc(Cl)cc2)c1 | 7%
CC(=O)N1CCc2c(sc(NC(=O)C3COc4ccccc4O3)c2C#N)C1 (stereo unspecified) | -13%
Cc1ccc(-n2c(-c3ccccc3)cn3c4c(=O)[nH]c(=O)n(C)c4nc23)cc1C | -4%
O=C(CCc1nnc2n(Cc3ccccc3)c(=O)c3ccccc3n12)NCc1ccccn1 | 2%
CCCc1cc(=O)[nH]c2nnc(SC(C)C(=O)OCC)n12 (stereo unspecified) | 21%
CCc1cc2c(=O)c(-c3nc4ccccc4n3C)c(CC)oc2cc1O | -14%
CCOC(=O)N1CCN(C(c2cccc(OC)c2)c2c(O)cc(C)n(Cc3cccnc3)c2=O)CC1 (stereo unspecified) | -5%
COc1ccc(-n2c(=O)[nH]cc(C(=O)Nc3cc(OC)cc(OC)c3)c2=O)cc1 | -5%
CC1Cc2nc(SCC(=O)Nc3cccc(F)c3)n(C)c(=O)c2S1 (stereo unspecified) | -4%
Nn1c(-c2ccncc2)nn2c(=O)c3ccccc3nc12 | -6%
CC(C)c1nnc(NC(=O)c2cccc(Br)c2)s1 | 81%

Reprinted at random: 6 entries already listed, in no set order.
Structure | Mtb growth
Cc1ccc([N+](=O)[O-])cc1NC(=O)CC1SC(N)=NC1=O (stereo unspecified) | -7%
Cc1nnc(SCCn2c(N3CCC(C)CC3)nc3c2c(=O)[nH]c(=O)n3C)s1 | 0%
Nc1nc(NCCO)nc(Nc2ccccc2)c1[N+](=O)[O-] | 1%
C=CCn1c(SCC(=O)N2CCN(C(=O)OCC)CC2)nc2c([nH]c3ccccc32)c1=O | -6%
C=CCNC(=S)NNc1ccc([N+](=O)[O-])cc1 | 10µg/mL*
CCOC(=O)CNC(=O)Cn1cnc2c(cnn2-c2ccc(C)cc2C)c1=O | -4%

The list goes on.
Structure | Mtb growth
Cc1ccc(-n2ncc3c(NNC(=O)c4ccccc4)ncnc32)cc1 | 18%
Cn1c(=O)c2c(nc3n2CC(COc2ccc(Cl)cc2)O3)n(C)c1=O (stereo unspecified) | 2%
Fc1cccc(-c2nnc3ccc(SCc4cccnc4)nn23)c1 | -3%
Cc1c(C(N)=O)sc2ncn(CC(=O)N3CCOCC3)c(=O)c12 | -6%
CCOC(=O)c1c(NC(=O)c2ccc(C)cc2)sc2c1CC(C)(C)NC2(C)C | 4%
CCOC(=O)c1nn(-c2ccc(C)cc2)c(=O)c2c(NC(=O)c3ccccc3Cl)scc12 | -8%
Cc1nnc(NC(=O)COc2ccc(Cl)cc2Cl)s1 | 1%
COc1ccc2nc(-c3ccc(C)c(NS(=O)(=O)c4cc(F)ccc4F)c3)cn2n1 | 2%
COc1ccc(C(=O)Nc2nnc(C)s2)c(OC)c1 | 5%
O=C(CN1N=NC2C(=O)N(c3ccc(F)c(F)c3)C(=O)C21)Nc1ccccc1F (stereo unspecified) | -8%

Looked up above:
Entry of CCOC(=O)c1nn(-c2ccc(C)cc2)c(=O)c2c(NC(=O)c3ccccc3Cl)scc12 under Mtb growth: -8%
Entry of Cc1nnc(NC(=O)COc2ccc(Cl)cc2Cl)s1 under Mtb growth: 1%

The list continues.
Structure | Mtb growth
O=C(CC1CCCCC1)Nc1c(C(=O)Nc2ccc3c(c2)OCCO3)oc2ccccc12 | -8%
Fc1cc(F)c2nc(N3CCN(c4ccccc4)CC3)sc2c1 | -1%
CCOC(=O)c1cccc(Nc2cc(C)nc3c(C)cccc23)c1 | 75%
COC(=O)c1c(NC(=O)c2ccc(OC)cc2)sc2c1CCN(C(C)C)C2 | 8%
COc1ccc(CC(=O)NCCc2cc3c(C)ccc(C)c3[nH]c2=O)cc1 | -15%
Cc1c(C)n2c3c(=O)[nH]c(=O)n(C)c3nc2n1CC(C)C | -9%
CCOc1ccccc1NC(=O)CSc1ncnc2c1oc1ccccc12 | ?
COc1ccc(-c2nnc(NC(=O)c3cccc(C)c3)o2)cc1 | 88µg/mL*
CC(O)CNc1nc(-c2cccc(Cl)c2)nc2ccccc12 (stereo unspecified) | 37%
Cc1ccc(C(c2sc3nc(C)nn3c2O)N2CCN(C(=O)c3ccco3)CC2)cc1 (stereo unspecified) | -6%
CC(=O)c1ccc(NC(=O)c2cnc3scc(C)n3c2=O)cc1 | -4%
CC(=O)Nc1nc(SCC(=O)Nc2nnc(C)s2)[nH]c(=O)c1NC(=O)c1cccs1 | -16%

The list is partial; the hit share may differ from the screen's.
